Assay outcomes as filed in PubChem BioAssay.
RecA intein inh = Mtb RecA intein splicing inhibitors, primary screen, biochemical, fluorescence, HTS; inhibition, %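 (about 9 µM by stock and volumes)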; Protein RecA (Mycobacterium tuberculosis (strain ATCC 25618 / H37Rv)), P9WHJ3; cell-free RecA intein splicing; 290,000 tested, 0.75% active; in the data active = inhibition above about 30%; inconclusive = no clear call, values can overlap the other calls;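 note: 0% = vehicle wells and 100% = reference inhibitor control wells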
Target sequence (P9WHJ3 whole entry, looked up): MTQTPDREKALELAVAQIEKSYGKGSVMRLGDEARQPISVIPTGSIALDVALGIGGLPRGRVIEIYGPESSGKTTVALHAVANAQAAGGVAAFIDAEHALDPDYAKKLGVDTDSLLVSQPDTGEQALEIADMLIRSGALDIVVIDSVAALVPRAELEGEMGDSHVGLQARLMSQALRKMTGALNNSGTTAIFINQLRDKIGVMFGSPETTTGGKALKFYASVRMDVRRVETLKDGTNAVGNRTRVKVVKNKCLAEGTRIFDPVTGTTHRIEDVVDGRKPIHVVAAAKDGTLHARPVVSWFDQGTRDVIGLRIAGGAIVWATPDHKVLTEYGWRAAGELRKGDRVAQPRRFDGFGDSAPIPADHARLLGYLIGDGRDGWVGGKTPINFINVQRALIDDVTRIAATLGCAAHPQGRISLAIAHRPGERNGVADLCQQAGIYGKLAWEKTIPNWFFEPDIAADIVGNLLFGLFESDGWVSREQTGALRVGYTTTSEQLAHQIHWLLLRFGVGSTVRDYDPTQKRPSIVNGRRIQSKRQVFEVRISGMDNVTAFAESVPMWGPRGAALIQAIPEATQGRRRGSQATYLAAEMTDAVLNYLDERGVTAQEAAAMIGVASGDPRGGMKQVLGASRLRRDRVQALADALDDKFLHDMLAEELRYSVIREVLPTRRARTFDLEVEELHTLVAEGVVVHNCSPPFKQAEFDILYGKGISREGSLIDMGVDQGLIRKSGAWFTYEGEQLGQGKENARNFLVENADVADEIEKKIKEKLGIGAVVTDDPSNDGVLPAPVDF
Mtb betalactam = beta-lactam sensitization of Mtb H37Rv, H37Rv | AID 434955, 2010 | M. tuberculosis H37Rv growth with meropenem, percent inhibition; hits of this screen are not shown here | 330,000 tested, 0.27% active | inhibition, % at 25 µM;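 active = about 74% or more and at least 40 points above the plate without the antibiotic, then above 30% in a dose series; inconclusive = first-round hits that could not be retested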;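 note: growth measured after seven days incubation then overnight dye step; 0% = bacteria only wells and 100% = bacteria with antibiotic; twin plates without the antibiotic show which effects depend on it; some results filed as inactive read as strong as hits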
Arbovirus anti = antivirals against arbovirus infection, primary screen, cell-based, full library, 10K replicate subset | arbovirus infection cell-based antiviral screen | 200,000 tested, 0.37% active | inhibition, % at 10 µM;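 active = inhibition from about 30%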;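 note: bluetongue infection of BSR cells; cell survival read as ATP light after 72 h; 0% = infected wells without compound and 100% = uninfected wells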
YopH PTP inh = YopH tyrosine phosphatase inhibitors, primary screen, biochemical, fluorescence Ex485/Em525. inhibition, %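 (about 10 µM by stock and volumes)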. 140,000 tested, 0.16% active;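 active = inhibition of 50% or more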;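 note: controls were vehicle for no effect and minimum signal wells for full effect; inactives centre near -20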
Mtb growth = M. tuberculosis H37Rv growth inhibitors, H37Rv strain (AID 1626); M. tuberculosis H37Rv growth inhibition; higher % means a stronger effect; inhibition, % at 10 µM; hits with a dose series show IC50 in µM; 220,000 tested, 0.95% active;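 active = confirmed in a dose series; inconclusive = inhibition above 80% but not taken into the dose series; inactive = below 80% or under 30% at every dose of the series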;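 note: bacteria incubated seven days before Alamar blue readout; 0% = bacteria only wells and 100% = bacteria with antibiotic wells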
Arbovirus anti repeat = recorded beside Arbovirus anti, whose call it bears; inhibition, %; measured here: 10K subset replicate screen; many hits read low in the repeat;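 first of two repeat runs on a subset; 0% = infected and 100% = uninfected wells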
* = called active by the depositor; ? = inconclusive; / = no result given. Only part of the results is shown; rates above refer to the full screens.

SMILES	RecA intein inh	Mtb betalactam	Arbovirus anti	YopH PTP inh	Mtb growth	others
CS(=O)(=O)NN1C(=O)c2ccccc2NC1c1c[nH]c2ccccc12 (centres undefined)	-1.5	2	-4	-18	-2%
O=C(N/N=C/c1cn(-c2ccccc2)nc1-c1cccs1)c1ccncc1	-6.8	99	-12	-13	?
O=Cc1c(NCCCN2CCCC2=O)c2ccccc2[nH]c1=O	-0.9	-3	/	/	/
Cc1nnc2sc(-c3ccc(NC(=O)c4ccc(-c5ccc(Cl)cc5Cl)o4)cc3)nn12	0.6	1	/	13	-9%
COc1ccc(C(C)=O)c(OC(=O)c2ccc(OC)c(OC)c2)c1	3.6	1	2	-15	-1%
COc1cc(/C=N/Nc2nc(C)cc(=O)[nH]2)ccc1OC(=O)c1cccnc1	/	-1	21	/	0%
Brc1ccc(NC2=Nc3ccccc3CC2)cc1	1.4	82	-7	-61	2%
O=C(NCCCn1ccnc1)c1cc(Br)c(Br)s1	-7.0	-3	/	/	/
CN(C)C(=O)c1c([N+](=O)[O-])c(C(C)(C)C)nn1C	-0.9	4	-2	-15	-5%
Cc1nc(C)c(C(=O)NCc2ccccc2Cl)o1	6.8	-8	-5	-7	2%
O=C1CN(C(=O)COC(=O)CNC(=O)c2ccccc2)c2ccccc2N1	0.7	-7	1	-21	-2%
CC(=O)Nc1ccc(C2(c3ccc(NC(C)=O)cc3)C(=O)Nc3ccccc32)cc1	3.8	-7	2	/	-4%
COC1=CC=C2[C@H]3Cc4ccc(OC)c5c4[C@@]2(CCN3C)[C@H]1O5	-1.7	-2	/	/	/
COc1cccc(CCc2nnc(CCC(=O)NC(C)Cc3cccs3)o2)c1 (centres undefined)	-2.6	-4	/	/	4%
COCCCNC(=O)CCc1c(C)c2cc3c(C)coc3cc2oc1=O	-0.3	-1	/	/	/
c1ccc(-c2nnc(-c3ccncc3)nc2-c2ccccc2)cc1	-9.4	49	-2	/	8%
NS(=O)(=O)c1ccc(Nc2nc3ccccc3nc2NS(=O)(=O)c2cccc([N+](=O)[O-])c2)cc1	6.3	19	29	/	-5%
CCOC(=O)c1ccc(NC(=O)Nc2ccc3c(c2)OCCO3)cc1	2.2	14	-6	8	-1%
O=C(NCCN1CCN(c2ccccc2)CC1)C1CCN(S(=O)(=O)c2cccc3nsnc23)CC1	-0.4	-12	-2	/	0%
CN(C)C(=O)Cn1c(=O)n(S(=O)(=O)c2ccccc2)c2ccccc21	0.5	2	/	/	/
CCCC(=O)c1c[nH]c(C(=O)N2CCOCC2)c1	-1.6	11	2	/	3%
CN(C)C(CNS(=O)(=O)c1ccc(F)cc1)c1cccnc1 (centres undefined)	0.3	-5	3	-36	-9%
O=S(=O)(c1ccc(F)cc1)N1CCN(Cc2ccccc2C(F)(F)F)CC1	12	10	-1	-12	-2%
O=C(Nc1cccnc1)OC1CCCC1	-0.4	-3	4	/	-2%
Cc1cccc(-n2c(C)cc(/C=C3\NC(=O)NC3=O)c2C)c1	2.9	-2	/	/	10%
C=CCNC(=O)c1onc(CSc2ccc(F)cc2)c1C(=O)NCC=C	2.8	2	/	/	/
CC(NCc1ccccc1)C1COc2ccccc2O1 (centres undefined)	-0.3	-5	0	-67	0%
O=C(Nc1cccc(F)c1)c1c(O)c2ccccc2[nH]c1=O	-1.8	1	/	/	/
Cn1nnc2c(NCc3ccco3)nccc21	-0.2	-4	4	-29	3%	Arbovirus anti repeat=1
CC(C)CC(C(=O)Nc1oc(-c2ccccc2)c(-c2ccccc2)c1C#N)N1C(=O)c2ccccc2C1=O (centres undefined)	/	-3	6	-3	-12%
Cn1c(=O)oc2cc(S(=O)(=O)N3CCCC(C(=O)NC4CCCc5ccccc54)C3)ccc21 (centres undefined)	-0.1	3	-16	-45	3%
CC1Cc2ccccc2N1C(=O)COC(=O)c1ccc(Br)o1 (centres undefined)	3.3	85	0	/	16µM*
CCn1cc(C(=O)N2CC(C)CC(C)C2)c(=O)c2cc(S(=O)(=O)N3CCOCC3)ccc21 (centres undefined)	1.6	-23	2	-37	-3%
O=C(c1ccsc1)N1CCN(C(=O)c2cccs2)CC1	-0.7	-4	-5	-10	-4%	Arbovirus anti repeat=2
Cc1nc(N(C)C)c2sc(=S)n(-c3ccccc3)c2n1	-0.7	3	1	/	1%
CCN1CCN(C(=O)c2ccc3c(c2)N(Cc2ccccc2F)C(=O)c2ccccc2S3(=O)=O)CC1	2.1	-8	/	/	/
O=C1CCCC(=O)N1c1ccc(F)cc1	-0.1	-13	/	/	/
COc1cccc(CNC(=O)CSc2nnc3c(n2)[nH]c2ccc(C)cc23)c1	3.4	-7	/	/	/
C/C(Nc1ccccc1C(F)(F)F)=C1/CCOC1=O	0.3	-9	6	/	3%
COc1ccc2[nH]c(C(=O)Nc3ccc(F)cc3Br)cc2c1	1.4	11	/	/	-8%
C=CC(=O)N(CCC)C(c1ccccc1)c1ccccc1OC (centres undefined)	14	-4	/	/	/
COCCN(C(=O)c1csnn1)C(C(=O)NC1CCCC1)c1ccccc1 (centres undefined)	-3.6	0	/	/	/
COc1cccc(CNC(=O)c2cc(S(=O)(=O)N3CCCCC3)c[nH]2)c1	2.7	-6	/	/	/
S=C(NCc1ccco1)Nc1ccccc1	-0.7	2	3	/	2%
COc1ccccc1C1CC(c2ccccc2)=NN1S(=O)(=O)c1ccccc1 (centres undefined)	5.5	2	/	/	-4%
Cc1nnc(SCC(=O)Nc2cccc(N)c2)n1-c1ccccc1	-0.2	3	/	/	/
Cn1c(NC(=O)c2ccco2)c(-c2ccc(Cl)cc2)c(=O)c2ccccc21	/	4	1	-8	-8%
O=C(CCN1C(=O)COc2ccccc21)N1CCN(c2ccccc2)CC1	-2.1	-5	10	/	-3%
COc1ccccc1NC(=O)c1ccc(CN2CCOCC2)cc1	-4.3	-19	5	-29	-13%
CCc1ccc(OCC(=O)Nc2ccc(N3CCN(S(C)(=O)=O)CC3)cc2)cc1	-2.4	-4	-3	/	5%
O=C1NC(=S)N/C1=C/c1ccc(Oc2ccc(C(F)(F)F)cc2[N+](=O)[O-])c(Cl)c1	-2.1	2	-2	-18	0%
COC(=O)c1ccc([C@@H](O)[C@H](C)C(=O)CC(=O)OC(C)(C)C)cc1	0.3	0	/	/	/
CC(C)(C)NC(=O)CN(Cc1ccc2c(c1)OCO2)C(=O)CNS(=O)(=O)c1ccccc1	-0.1	-2	/	/	/
O=C1NC(=O)C(=Cc2ccc(Sc3ccccc3)o2)C(=O)N1	1.8	79	/	/	9%
Cc1c(C)n(CCCN(C)C)c2ncnc(Nc3ccc(F)cc3)c12	-0.6	-2	/	/	/
COc1ccccc1/C=C/c1nc(S(=O)(=O)c2ccccc2)c(N(C)C)o1	-0.5	5	/	/	/
CCOC(=O)c1c(C)[nH]c(C(=O)NCc2ccccn2)c1C	0.4	-13	/	/	/
CCC(Sc1ncccn1)C(=O)Nc1cc(C)on1 (centres undefined)	3.8	-7	1	3	-4%
Cc1ccccc1OCC(=O)Nc1ccc2c(c1)ncn2C	-0.2	-3	/	/	/
Cc1ccc2c(c1)N(CC(=O)Nc1c(C)cccc1C)C(=O)c1cccnc1O2	-4.3	4	/	/	/

Reprinted from the listing (12 entries):
SMILES	RecA intein inh	Mtb betalactam	Arbovirus anti	YopH PTP inh	Mtb growth	others
C=CC(=O)N(CCC)C(c1ccccc1)c1ccccc1OC (centres undefined)	14	-4	/	/	/
COCCN(C(=O)c1csnn1)C(C(=O)NC1CCCC1)c1ccccc1 (centres undefined)	-3.6	0	/	/	/
COc1cccc(CNC(=O)c2cc(S(=O)(=O)N3CCCCC3)c[nH]2)c1	2.7	-6	/	/	/
S=C(NCc1ccco1)Nc1ccccc1	-0.7	2	3	/	2%
COc1ccccc1C1CC(c2ccccc2)=NN1S(=O)(=O)c1ccccc1 (centres undefined)	5.5	2	/	/	-4%
Cc1nnc(SCC(=O)Nc2cccc(N)c2)n1-c1ccccc1	-0.2	3	/	/	/
Cn1c(NC(=O)c2ccco2)c(-c2ccc(Cl)cc2)c(=O)c2ccccc21	/	4	1	-8	-8%
O=C(CCN1C(=O)COc2ccccc21)N1CCN(c2ccccc2)CC1	-2.1	-5	10	/	-3%
COc1ccccc1NC(=O)c1ccc(CN2CCOCC2)cc1	-4.3	-19	5	-29	-13%
CCc1ccc(OCC(=O)Nc2ccc(N3CCN(S(C)(=O)=O)CC3)cc2)cc1	-2.4	-4	-3	/	5%
O=C1NC(=S)N/C1=C/c1ccc(Oc2ccc(C(F)(F)F)cc2[N+](=O)[O-])c(Cl)c1	-2.1	2	-2	-18	0%
COC(=O)c1ccc([C@@H](O)[C@H](C)C(=O)CC(=O)OC(C)(C)C)cc1	0.3	0	/	/	/

Further compounds:
SMILES	RecA intein inh	Mtb betalactam	Arbovirus anti	YopH PTP inh	Mtb growth	others
COC(=O)c1ccccc1OC(=O)c1cc[n+]([O-])cc1	4.5	-6	2	/	5%
CCn1c(SCc2ccc(C(=O)OC)o2)nnc1-c1c[nH]c2ccccc12	2.2	100	0	/	?
CCN1CCN(CC(=O)N2c3ccccc3CC2C)CC1 (centres undefined)	-0.5	-8	-2	-21	-5%
CC[C@@]12C(=O)N(c3ccc(OC)cc3)C(=O)N1[C@H](c1cccc(C)c1)[C@@H]1C(=O)N(Cc3ccccc3)C(=O)[C@@H]12	2.3	1	/	/	/
Cc1ccc(-c2csc(NC(=O)c3cnccn3)n2)cc1C	-0.4	41	-1	/	71%
CC1C(=O)Nc2ccccc2N1C(=O)c1cccc(C(F)(F)F)c1 (centres undefined)	-0.5	-6	/	/	/
O=C(CSC1=NS(=O)(=O)c2cc(F)ccc2N1)NCc1ccc(F)cc1	-3.6	-3	/	/	/
Nc1c(C(=O)N2CCOCC2)sc2nc3c(cc12)CCCC3	3.0	-3	/	/	/
Cc1c(Cl)cccc1NC(=O)CSc1ccc(-c2cccnc2)nn1	0.5	8	-8	/	/
COc1ccc(CCNc2cc(N3CCN(C(=O)c4ccc(C)cc4)CC3)ccc2[N+](=O)[O-])cc1OC	-3.5	-2	-1	-22	-11%
O=C(Cn1ncc2c(=O)oc3ccccc3c21)Nc1nc2ccccc2s1	2.9	/	-2	-21	2%
CCOC(=O)C1C(=O)CC(C)(O)C(C(=O)OCC)C1c1ccc(OC)cc1 (centres undefined)	-1.6	-4	4	-26	-3%
CCn1c2ccccc2c2nnc(SCC(=O)Nc3ncccn3)nc21	2.3	-2	6	-27	-3%
O=C(N1CCCCC1)N1CCN(S(=O)(=O)c2cccc([N+](=O)[O-])c2)CC1	-2.8	-7	/	/	/
C/C(=N\NC(=O)C1COc2ccccc2O1)c1cc2ccccc2o1 (centres undefined)	0.7	0	-5	/	5%
CCOC(=O)C1=C[C@]2(CC)CCCN3CCc4c(n1c1ccccc41)[C@@H]32	-7.3	0	11	-20	5%
c1ccc(-n2ncc3c(N4CCCCC4)ncnc32)cc1	1.2	5	3	-40	7%
COc1ccc(-c2nnc(OCc3nc4ccccc4n3C)c3ccccc23)cc1	0.0	-5	8	-21	-2%
COc1cccc(NC(=O)CN(C)S(=O)(=O)c2ccc3c(c2)NC(=O)CS3)c1	-1.9	-4	/	/	/
CCOC(=O)CN1C(=O)S/C(=C/c2ccc(O)c([N+](=O)[O-])c2)C1=O	1.3	71	20	-34	20%
COCCNc1ccc(N2C(=O)CCCC2=O)cc1[N+](=O)[O-]	0.7	-1	-4	/	-3%
OCCN(C=NC1=NN(c2cccc(C(F)(F)F)c2)CC1)CCO	-1.9	97	-4	-78	41%
COc1ccc(/C=N/NC(=O)CN(Cc2ccccc2)S(=O)(=O)c2ccc3c(c2)OCCO3)cc1	4.0	5	-19	-19	1%
COCCCn1c(-c2ccsc2)nc2c1c(=O)[nH]c(=O)n2Cc1ccccc1	-0.1	-3	3	-8	2%
CCCc1c(C(=O)NNc2cc(C(F)(F)F)ccc2Cl)cnn1-c1ccccc1	-3.1	13	/	/	5%
CCCCSc1nnc(-c2ccc(NC(C)=O)cc2)n1C	-3.1	-2	0	-12	-7%
O=C1NC(c2ccccc2)=C(c2ccc3ccccc3n2)C(c2ccc(F)cc2)N1 (centres undefined)	9.7	-3	3	-17	15%
CSc1ccc(/C=C(/NC(=O)c2ccco2)C(=O)N2CCOCC2)cc1	0.9	-2	/	/	/
Cc1ccc(-n2ncc3c(=O)[nH]c(SCC(=O)N4CCCc5ccccc54)nc32)cc1	3.5	1	-2	-9	-1%
CCc1ccc(Cn2nnc(C(=O)NCc3ccccc3OC)c2N)cc1	-0.8	5	-1	-39	-4%	Arbovirus anti repeat=-1
